MT1-MMP act inh = inhibitors of human MT1-MMP activation | P50281 | HT1080 RFP-PRO-GFP cells, GFP/RFP ratio fluorescence, overnight; percent of plate control window, DMSO zero | GFP/RFP ratio change, % at 20 µM | actives 0.061% (n = 360,000) | AID 651647;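 active = GFP/RFP ratio change of at least 30% with cell ATP level not reduced by more than half and red fluorescence within 50% of control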; note: strong numbers were not always called active
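Material: RFP-PRO-GFP reporter HT1080 cells. Dosing: single-point 20 µM compound, 1% DMSO. Controls: DMSO and RFP-L50D-GFP cell wells. Timing: cells overnight before dosing, compound overnight, 37 °C, 5% CO2. Measure: GFP/RFP fluorescence ratio.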
PABP FP inh = PABP-poly(A) binding inhibition. inhibition, % at 35 µM. PABP-poly(A) RNA binding, fluorescence polarization. actives 1% (n = 290,000). P11940. AID 2014;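 active = 50% or more with normal probe brightness, or confirmed in later tests; inconclusive = above 50% with abnormal brightness, or retests that disagree; inactive = below 50% or failed in later tests; about a fifth of its hits are not listed in these tables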;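 note: calls also rest on retests at 20 µM and on dose response follow-up; controls were probe without protein and protein plus probe with vehicle; some compounds called inactive have numbers as strong as hits; many hits fall short of the cut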
Target sequence (P11940 whole entry, looked up): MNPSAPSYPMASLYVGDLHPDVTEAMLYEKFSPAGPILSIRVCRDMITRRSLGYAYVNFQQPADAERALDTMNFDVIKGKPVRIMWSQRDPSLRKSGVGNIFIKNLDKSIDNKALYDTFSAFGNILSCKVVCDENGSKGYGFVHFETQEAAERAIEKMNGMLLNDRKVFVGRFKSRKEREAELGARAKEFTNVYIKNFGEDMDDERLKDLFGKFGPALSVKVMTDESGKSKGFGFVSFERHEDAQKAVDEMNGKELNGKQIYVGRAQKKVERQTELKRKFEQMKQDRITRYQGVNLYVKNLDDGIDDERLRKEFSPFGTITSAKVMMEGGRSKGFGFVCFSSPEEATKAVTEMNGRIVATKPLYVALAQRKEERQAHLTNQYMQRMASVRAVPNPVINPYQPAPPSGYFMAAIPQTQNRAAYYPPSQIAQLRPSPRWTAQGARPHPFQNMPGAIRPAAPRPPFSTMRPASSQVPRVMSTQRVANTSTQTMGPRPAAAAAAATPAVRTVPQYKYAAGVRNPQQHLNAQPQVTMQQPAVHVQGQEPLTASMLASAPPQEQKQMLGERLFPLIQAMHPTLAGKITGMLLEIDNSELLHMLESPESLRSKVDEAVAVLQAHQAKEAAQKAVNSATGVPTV
HIV Env fusion = blocks HIV Env-driven cell-cell fusion. HeLa-JRFL Env/CEM21 cell fusion, luciferase. inhibition, % at 12.3 µM. actives 1.1% (n = 360,000);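 active = mean replicate inhibition score of at least 50 and every replicate individually at or above 50; inconclusive = only one of the two criteria met; inactive = mean below 50 and not all replicates reaching 50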;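 note: 0% = plate neutral controls and 100% = maraviroc near 300 nM; one replicate is shown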
eIF4H inh = inhibitors of RNA binding by human eIF4H; Q15056; eIF4H fluorescence polarization binding assay; inhibition, % at 35 µM; actives 0.94% (n = 290,000); AID 2012;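 active = 50% or more with normal probe brightness, or confirmed in later tests; inconclusive = above 50% with abnormal brightness, or retests that disagree; inactive = below 50% or failed in later tests; about a fifth of its hits are not listed in these tables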;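 note: calls also rest on retests at 20 µM and on dose response follow-up; 0% = protein and probe with vehicle and 100% = probe without protein; strong numbers were not always called active; many hits fall short of the cut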
Rce1 inhib = yeast Ras-converting enzyme inhibition; yeast membranes, quenched prenylated peptide cleavage fluorescence; Q03530; actives 0.27% (n = 290,000); calls only;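 active = fall in fluorescence gain of 50% or more versus controls, with final raw signal at or below 3038400; inconclusive = same 50% fall but final raw signal above 3038400; inactive = fall in fluorescence gain under 50%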;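 note: plate controls were neutral control wells for no effect and wells lacking membranes for full effect; tested at 10 µM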
Yeast UUG start = yeast start codon fidelity modulation; S. cerevisiae UUG-firefly luciferase reporter, luminescence/redox ratio; activity score, % at 18.7 µM; actives 0.13% (n = 350,000);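 active = replicate mean at a twofold rise or more, about +100% in these data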;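 note: firefly luciferase made from a UUG start codon reports start codon fidelity; reporter light over untreated wells divided by growth signal over untreated wells; some hits fall short of that in this replicate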
CSC inhib = cancer stem cell inhibition. cancer stem cell-like cells viability, luminescence. inhibition, % at 7.5 µM. actives 1.1% (n = 300,000). AID 2717;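 active = mean at 75% or more and at least half the replicates too; inconclusive = mean and replicates disagree; tested in HMLE shEcad cells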;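 note: 0% = median of negative and 100% = median of positive control wells; the first replicate is given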
eIF4H inh retest = recorded beside eIF4H inh, whose call it bears; inhibition, %; compound at 20 µM; confirmation average;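 mean of two retest wells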
PABP FP inh retest = recorded beside PABP FP inh, whose call it bears; inhibition, %; compound at 20 µM; confirmation repeats;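 mean of two retest wells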
MT1-MMP act inh RFP = second read-out of MT1-MMP act inh, no call of its own (marks repeat the call); RFP signal change, %; measured here: RFP expression control read;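 0 = vehicle wells; hits needed this value within 50% of zero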
Active calls of the source: *; i = inactive; ? = inconclusive; . = no result given.

SMILES	MT1-MMP act inh	MT1-MMP act inh RFP	PABP FP inh	HIV Env fusion	eIF4H inh	Rce1 inhib	Yeast UUG start	CSC inhib	others
Cc1ccc(NC(=O)CN(C)S(=O)(=O)c2cccc3nsnc23)cc1Cl	-1	-5	8	-4	-6	i	-7	.
COCCn1cnnc1SCC(=O)Nc1ccc(Br)cc1F	3	2	10	-8	2	i	-11	-13
CCCCNc1ccc(C(=O)Nc2cccc(C)n2)cc1[N+](=O)[O-]	3	-5	-5	-47	-1	i	-4	0
c1ccc(-n2ncc3c(N4CCN(CCOc5cccc6ccccc56)CC4)ncnc32)cc1	-6	-13	0	27	-4	i	-9	42
CSc1ccc(CNCC(O)c2ccccc2)cc1 (stereo unspecified)	5	3	-3	-2	3	i	-14	-4
O=C(OCc1nnc(-c2ccccc2)o1)C1CC(=O)N(Cc2ccco2)C1 (stereo unspecified)	7	8	3	13	12	i	-7	-12
c1ccc(-c2cc(N3CCCCC3)ncn2)cc1	2	0	-10	.	1	i	-23	-10
CCOc1ccc(CNS(=O)(=O)c2cc(-c3cc(C)no3)ccc2OC)cc1OC	0	4	0	-5	1	i	-24	13
Cc1ccc(N2CC(C(=O)Nc3c4c(nn3C(C)(C)C)CS(=O)(=O)C4)CC2=O)cc1 (stereo unspecified)	1	3	-7	45	4	i	-12	5
CC(=O)/C(N=Nc1cc(C)ccc1O)=C(\C)O	-26	7	?	7	?	i	.	4
O=C1OCCC1Sc1nnc(-c2ccccc2Br)n1Cc1ccccc1 (stereo unspecified)	-4	3	-1	.	-5	i	-15	.
CCCCc1ccc(NC(=O)C(=O)NCCN2CCN(Cc3ccc([N+](=O)[O-])cc3)CC2)cc1	1	-23	2	8	-2	.	.	-10
Cc1cccc(C)c1C(=NCCCN(C)C)c1ccccc1	3	6	12	8	4	i	.	-11
CCN(CC)C(=O)c1[nH]cnc1C(=O)NCC(=O)OCc1ccccc1	1	1	-5	-14	-10	i	-17	-6
CN1CCN(c2cc3c(c4c2[nH]c2ccccc24)C(=O)CC(C)(C)C3)CC1	-5	-2	13	-31	-7	i	-1	6
CCCc1cc(=O)oc2c(C)c(OC3CCCCC3=O)ccc12 (stereo unspecified)	0	-6	3	33	-6	i	-7	.
Cc1ccc2nc(-c3ccncc3)c(Nc3ccccc3)n2c1	6	3	22	.	6	i	-22	-26
CN1C(C(=O)NCc2ccccc2)CC2Cn3c(nc4cc(Cl)c(Cl)cc43)C21 (stereo unspecified)	1	-2	2	-12	6	i	7	4
NC(=O)Nn1c(CCC(=O)O)ccc1-c1ccc(F)cc1	2	7	-8	-38	0	i	-4	-18
CCSc1nc2ccc(OC)cc2cc1C#N	2	-1	-4	-317	0	i	-18	0
Cc1cccc(C)c1-n1cccc1/C=C1/C(=N)N2C(=NC1=O)SN=C2S(C)(=O)=O	-2	1	-1	-1	5	i	.	35
COc1cccc(-c2nnc(SCC(=O)NCc3ccc4c(c3)OCO4)n2Cc2ccco2)c1	1	-1	-3	.	-5	i	.	5
COc1ccc(S(=O)(=O)N2CCCC(C(=O)NC3CCCC3)C2)cc1OC (stereo unspecified)	-4	-11	-1	16	-19	i	-12	-8
COC(=O)C1(C)NC(c2cccs2)C2C(=O)N(c3ccc(F)cc3)C(=O)C21 (stereo unspecified)	0	3	-4	-17	-2	i	.	-6
CCOC(=O)c1cc(C(=O)NC(C)c2ccccc2)c(=O)[nH]c1C (stereo unspecified)	3	-7	3	0	-2	i	-3	21
Following part
SMILES	MT1-MMP act inh	MT1-MMP act inh RFP	PABP FP inh	HIV Env fusion	eIF4H inh	Rce1 inhib	Yeast UUG start	CSC inhib	others
COc1ccc(NC(=O)C2=C(C)Nc3ncnn3C2c2ccccc2C(F)(F)F)c(OC)c1 (stereo unspecified)	-2	5	-6	.	-11	.	-17	-17
O=C(Nc1ccon1)c1ccccc1F	-5	-3	2	-11	-1	i	.	-5
O=S(=O)(NC1CCCC1)c1cccc(-c2nnc(-c3ccccc3)o2)c1	-1	-9	0	.	7	i	-19	-2
CCn1cnc2cc(NCc3nc4ccccc4n3Cc3ccccc3)ccc21	-4	-2	-1	.	-3	i	-40	2
N#Cc1ccc(COC(=O)C2CCC(=O)N2)cc1 (stereo unspecified)	6	2	0	38	-2	i	-17	11
Cc1ccc(S(=O)(=O)N(C)c2ccc(OCC(=O)NCC3(N(C)C)CCCCC3)cc2)cc1	2	0	.	8	.	i	-4	35
Cc1ccccc1-n1nnnc1SCC(=O)NCC1(N2CCOCC2)CCCCC1	-1	1	.	.	.	.	-23	-8
Cc1cccc(OCc2nnc(SCC(=O)N3CCN(C(=O)c4ccco4)CC3)n2C)c1C	2	0	0	.	-2	i	-7	-11
O=C(CN1CCN(Cc2ccccc2)CC1)N1CCCc2ccccc21	0	2	0	-5	20	i	-5	-4
CCOC(=O)N1CCN(C(=O)CNC(=O)c2nn(-c3ccc(OC)c(OC)c3)c(=O)c3ccccc23)CC1	4	3	7	9	-10	i	1	.
Nc1nc(-c2cccnc2)nc2sc3c(c12)CCCC3	5	0	-3	-165	-8	i	.	-8
CC(C)(C)NC(=O)C(c1ccco1)N(Cc1ccc2c(c1)OCO2)C(=O)Cn1nnc2ccccc21 (stereo unspecified)	7	0	-11	.	-14	i	0	-5
O=C(CN1C(=O)NC2(CCOc3ccccc32)C1=O)c1ccc(F)cc1 (stereo unspecified)	-6	1	.	-13	.	i	-2	-10
COc1ccc(/C=C/c2ccccc2)cc1[C@H]1[C@H]2C=CC[C@@H](C)[C@@H]2C(=O)N1Cc1ccccc1	-6	-11	-4	34	-1	i	-9	16
CC(Oc1ccc(Br)cc1)C(=O)Nn1c(=S)[nH]c2ncccc2c1=O (stereo unspecified)	.	.	-2	.	0	i	.	.
COc1ccc(/C=N/NC(=O)CNC(=O)COc2ccccc2)cc1	4	5	5	3	8	i	.	7
Cc1nnc(SCCN2CCOCC2)n1-c1cccc(Cl)c1	3	4	-1	15	-3	i	-14	-1
Cc1cc(C)n2nc(SCc3cc(=O)oc4cc(O)ccc34)nc2n1	.	.	46*	.	?	i	.	11	PABP FP inh retest=80*
O=C(O)CSc1nc2ccc(Cl)cc2[nH]1	3	4	11	.	-1	i	-3	5
Cc1ccc(CN2CCNC(=O)C2CC(=O)NCC(F)(F)F)o1 (stereo unspecified)	-8	-2	6	-3	18	i	9	-4
CC(C)(C)[C@H]1COC(=O)[C@@H](Cc2ccc(F)cc2)C/C=C\C[C@@H](CC(=O)N[C@@H](CO)Cc2ccccc2)C(=O)N1	6	-2	.	12	.	.	5	-6
Cc1ccc(Cl)cc1OCC(=O)NCCOC(=O)Nc1sc(=S)n(C)c1C	-1	-12	-3	14	2	i	.	4
Cc1nn2c(N3CCOCC3)cc(C(C)(C)C)nc2c1-c1ccc(Cl)cc1	4	-2	8	-1	4	i	.	.
COC(=O)NN=C1CCC(c2ccccc2)CC1 (stereo unspecified)	1	4	2	6	0	i	6	-24
COc1ccc(C(=O)N2CCc3cc4c(cc3C2C)OCCCO4)cc1 (stereo unspecified)	2	-4	-5	.	-5	i	11	-6

Gathered by group: the entries above containing a nitro group on carbon (2)
SMILES	MT1-MMP act inh	MT1-MMP act inh RFP	PABP FP inh	HIV Env fusion	eIF4H inh	Rce1 inhib	Yeast UUG start	CSC inhib	others
CCCCNc1ccc(C(=O)Nc2cccc(C)n2)cc1[N+](=O)[O-]	3	-5	-5	-47	-1	i	-4	0
CCCCc1ccc(NC(=O)C(=O)NCCN2CCN(Cc3ccc([N+](=O)[O-])cc3)CC2)cc1	1	-23	2	8	-2	.	.	-10

Remaining list, next part.
SMILES	MT1-MMP act inh	MT1-MMP act inh RFP	PABP FP inh	HIV Env fusion	eIF4H inh	Rce1 inhib	Yeast UUG start	CSC inhib	others
Cc1c(C(c2ccc(Br)cc2)c2c(C)n(C)n(-c3ccccc3)c2=O)c(=O)n(-c2ccccc2)n1C	-1	-2	-9	1	-1	i	-16	-2
O=C1CCCN1CCCNS(=O)(=O)c1ccc(F)c(F)c1	-4	-1	0	-13	-10	i	-13	11
CC1CCCN(CCCNC(=O)CCn2nc(-c3ccccc3)ccc2=O)C1 (stereo unspecified)	-1	-4	7	.	-19	i	2	-11
COc1ccccc1C(=O)Nc1ccc(N2CCN(S(C)(=O)=O)CC2)cc1	2	-1	4	-79	-13	.	-13	-12
NCC(=O)Nc1ccc(Br)cc1	-1	3	6	6	-5	i	-15	11
CC(C)OCCCNC(=O)C(Cc1ccccc1)NS(=O)(=O)c1ccc2c(c1)CCC(=O)N2 (stereo unspecified)	-2	4	-4	-1	-14	i	-13	7
O=C(/C=C/c1ccc(F)cc1)NCCNC(=O)/C=C/c1ccc(F)cc1	4	4	-8	-1	-4	i	.	-12
O=C(Nc1ccc2oc(=O)ccc2c1)c1cc([N+](=O)[O-])ccc1N1CCOCC1	2	-3	-1	27	9	i	.	-9
Cc1ccc(S(=O)(=O)N2CCN(C(=O)COC(=O)/C=C/c3ccc(F)cc3)CC2)c(C)c1	4	0	.	-14	.	i	-5	-7
CCn1cc(C(=O)O)c(=O)c2cc(F)c(N3CCN(C(=O)Nc4ccccc4)CC3)cc21	-17	-9	27	.	4	i	.	-11
Cn1c(-c2ccccc2)c(/C=N/NC(=O)c2cccnc2)c2ccccc21	2	3	-21	-18	14	i	.	-11
O=C(Nc1ccc2c(c1)OCO2)c1ccc(Cl)s1	8	6	1	-190	12	i	-22	9
Cc1ccc(Cn2c(=N)n(CC(O)COc3ccccc3)c3ccccc32)cc1 (stereo unspecified)	-7	-9	-8	.	0	i	.	8
CCn1nc(NS(=O)(=O)c2ccccc2[N+](=O)[O-])c2cc3ccc(C)cc3nc21	-2	1	14	.	2	i	-13	-12
Cc1ccc(NC(=O)CSCC(=O)Nc2nnc(C)s2)cc1	-4	3	.	19	.	i	-1	-5
COc1cccc(/C=N/NC(=O)CSc2ccccc2C)c1O	-7	-4	13	18	11	i	.	-19
O=C(COC(=O)c1ccco1)NCc1cccs1	5	6	4	.	0	i	-13	34
COC(=O)C1=C(C)NC(C)=C(C(=O)OC)C1C(=O)OCC(=O)Nc1ccc(C(C)=O)cc1	0	1	0	2	8	i	.	-15
O=C(COC(=O)c1ccc[n+]([O-])c1)Nc1ccc([N+](=O)[O-])cc1Cl	0	3	.	-2	.	.	2	-2
Cc1nc(N2CCCCC2)c2c(C)c(C(=O)Nc3cccc(C(F)(F)F)c3)sc2n1	-1	-8	-4	20	-1	i	3	.
CCC1c2ccc(C)n2CCN1C(=O)Nc1ccccc1OC (stereo unspecified)	-38	14	1	.	54	i	5	17	eIF4H inh retest=-4;PABP FP inh retest=5
CCc1nc(N2CCN(C(=O)CCl)CC2)c2c3c(sc2n1)CC(C)CC3 (stereo unspecified)	-1	0	-11	0	-6	i	-10	17
Cc1ccc(NC(=O)c2cc(S(=O)(=O)N3CCCCC3)c[nH]2)cc1F	1	5	-6	10	1	i	1	4
CC1(C)NC(=O)N(CC(O)COc2ccc(N3C(=O)c4ccccc4C3=O)cc2)C1=O (stereo unspecified)	8	5	-10	.	-8	i	.	1
Cc1cc(C)cc(NC(=O)[C@H](Cc2c[nH]c3ccccc23)NC(=O)[C@@H]2Cc3ccccc3CN2)c1	8	1	-2	.	-2	.	-1	4
Cc1ccc(SCCNC(=O)c2ccc(C)c(S(=O)(=O)Nc3ccccc3C)c2)cc1	-6	-9	-3	.	-8	i	-8	17
COc1ccc(-c2cc(C(F)F)n3ncc(C(=O)N4CCCCC4)c3n2)cc1	6	-1	2	-7	2	i	2	4

Screening data as filed in PubChem BioAssay.
